Screens: PubChem BioAssay, National Center for Advancing Translational Sciences (NCATS)
hNpr1 antagonist: human Npr1 receptor antagonism; 76,000 tested, 1.6% active; P16066; HEK293 hNpr1 GloSensor cGMP, ANP-stimulated luminescence; Potency, µM (highest dose often 46.3 µM), for inactives: at the top dose activity change, negative = inhibition, most hits filed as inhibitors; active = well fitted inhibition curve with a large enough effect; inconclusive = small, poorly fitted or top-dose-only effect; inactive = no such curve, though single readings can be large or run the other way;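 note: nearly all actives have a fitted effect of over 60% in size; nearly all hits also lower the signal before the agonist is added; a reference antagonist and vehicle were the controls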
Target sequence (P16066 whole entry, looked up): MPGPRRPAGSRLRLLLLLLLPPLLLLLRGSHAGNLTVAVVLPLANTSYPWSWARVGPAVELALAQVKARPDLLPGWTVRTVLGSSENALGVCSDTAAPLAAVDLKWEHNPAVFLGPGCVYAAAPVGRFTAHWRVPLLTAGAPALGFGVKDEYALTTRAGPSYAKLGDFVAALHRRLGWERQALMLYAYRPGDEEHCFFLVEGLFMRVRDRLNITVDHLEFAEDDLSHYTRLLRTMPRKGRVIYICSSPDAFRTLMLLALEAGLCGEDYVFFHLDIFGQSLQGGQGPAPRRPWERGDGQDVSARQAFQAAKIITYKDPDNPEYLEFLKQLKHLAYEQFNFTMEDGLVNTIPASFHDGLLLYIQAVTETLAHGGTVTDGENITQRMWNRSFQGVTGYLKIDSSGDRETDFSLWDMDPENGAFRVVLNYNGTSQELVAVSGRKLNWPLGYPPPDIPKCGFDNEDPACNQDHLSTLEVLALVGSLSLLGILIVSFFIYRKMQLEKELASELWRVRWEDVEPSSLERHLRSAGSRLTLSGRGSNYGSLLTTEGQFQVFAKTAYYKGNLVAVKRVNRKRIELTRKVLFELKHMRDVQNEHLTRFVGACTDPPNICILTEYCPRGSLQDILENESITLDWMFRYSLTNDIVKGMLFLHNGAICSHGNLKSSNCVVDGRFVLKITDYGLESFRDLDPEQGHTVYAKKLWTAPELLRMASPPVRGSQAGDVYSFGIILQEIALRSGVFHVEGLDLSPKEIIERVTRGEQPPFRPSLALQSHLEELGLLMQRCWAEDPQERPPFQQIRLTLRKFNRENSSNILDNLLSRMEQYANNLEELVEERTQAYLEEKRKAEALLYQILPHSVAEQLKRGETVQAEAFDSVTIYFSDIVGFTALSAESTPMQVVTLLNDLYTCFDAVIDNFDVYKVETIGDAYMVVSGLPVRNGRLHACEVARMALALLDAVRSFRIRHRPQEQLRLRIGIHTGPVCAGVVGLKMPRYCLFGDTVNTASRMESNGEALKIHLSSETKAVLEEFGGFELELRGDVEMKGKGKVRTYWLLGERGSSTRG
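HEK293 cells stably expressing human Npr1 and cGMP GloSensor pGS-40F, loaded 2 h with 2% GloSensor reagent, given compound 30 min at room temperature. Luminescence read before and 20 min after 0.1 nM hNppA.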
* = called active by the depositor; ? = inconclusive; & = joins results of further samples; [ ] = remark or other dose. % is set by controls: 0 for no effect and ±100 for the full control effect; potency is the fitted concentration of half-maximal effect.

compound | hNpr1 antagonist
COc1cccc(-c2noc(CC3CCN(C(=O)c4ccc(OC)cc4C)CC3)n2)c1 | 3.5µM*
CCOC(=O)c1cccc(NC(=O)O[C@@H]2CO[C@H]3[C@@H]2OC[C@@H]3NS(=O)(=O)c2cc(OC)ccc2OC)c1 | -2%
COc1ccc(CN2CC3(CCN(S(=O)(=O)c4c(C)noc4C)CC3)C2=O)cc1 | 0%
COCC(=O)NC1CCC12CCN(C(=O)C1CCC1)CC2 (stereo unspecified) | 3%
O=C1NCCCCCCN(S(=O)(=O)c2cccc3cccnc23)[C@H]2CCC[C@@H]12 | 6%
CCC1c2nccn2CCCN1C(=O)c1cnc(C)cn1 (stereo unspecified) | 5%
CCNC(=O)[C@@H]1C[C@H](NC(=O)c2scnc2C)CN1Cc1nc(C)no1 | 5%
O=C(CN1C(=O)NC(c2ccccc2Cl)C2=C1COC2=O)Nc1cccc(F)c1 (stereo unspecified) | -17%
C[C@@H]1CN(C(=O)CCSCc2ccccc2)CC[C@@]1(O)C1CCOCC1 | -3%
Cn1cc(C(=O)NCC2CN(C(=O)c3ccccc3)CC23CN(c2ccccc2)C3)cn1 (stereo unspecified) | 1%[70.6 µM]

New compounds follow:
compound | hNpr1 antagonist
O=C(N[C@H]1C[C@H]2C(=O)NC[C@@H](CCC(=O)N3CCN(c4ccccc4)CC3)N2C1)c1ccco1 | 0%
COCCC(=O)N[C@H]1CC[C@]2(C)CC[C@@H]([C@H](C)C(=O)N3CCCC3)[C@H](O)[C@H]2[C@@H]1C | 5%[70.6 µM]
COc1ccc(C)cc1NC(=O)Cn1c(-c2ccc(F)cc2)nc(C)c(CCO)c1=O | 4%
O=[S+]1([O-])CCN(Cc2ccc(-c3cnc4c(OCc5ccccc5)nccn34)cc2)CC1 | 11µM*
CCc1nnc([C@@H]2CC(F)(F)CN2C(=O)c2cc(C)oc2C)o1 | -3%
CCCc1noc(-c2cccn3c(CNC(=O)c4ccccc4Cl)nnc23)n1 | 2%
Cc1ncsc1CN1C(=O)CO[C@H](c2ccc(NC(=O)CC(C)C)cc2)[C@H]1CO | -1%[70.6 µM]
O=C(CC1CC1)N1CCC(Oc2cnc3c(ccn3-c3cncnc3)c2)CC1 | -2%[70.6 µM]
Cc1ccc(NC(=O)N[C@H]2C[C@@](O)(C(=O)N[C@H](CC(C)C)C(N)=O)C[C@@H](O)[C@@H]2O)cc1 | 5%
COCCN1C(=O)c2cccn2CC1CNC(=O)NCc1ccc(OC)cc1 (stereo unspecified) | 0%

(cont.)
compound | hNpr1 antagonist
CCn1cnnc1CC1CCCN(C(=O)COc2ccc(C)cc2)C1 (stereo unspecified) | -11%
CN(c1ccccc1)c1ccc2c(n1)CN(CCOc1ccccc1)C(=O)CO2 | -19%[70.6 µM]
COCCCN1C(=O)CC[C@H]2CN(C(=O)c3scnc3C)CC[C@H]21 | -2%
O=C1CCN(C(=O)COc2ccccc2)CCCC(CO)CCN1 (stereo unspecified) | 4%
Cn1cccc1C(=O)N1CC(CO)C2(CCNCC2)C1 (stereo unspecified) | 0%
COc1ccc(NC(=O)c2ccc3c(c2)N(C(=O)c2ccc(OC)cc2)CC3)cc1 | ?
COc1ccc(-c2cc(C(=O)NCc3cnn(C)c3)c3c(c2)N(C)CCO3)cc1 | -11%[70.6 µM]
CC(C)c1nc(CNC(=O)c2ccc(N(C)Cc3ccccn3)nc2)no1 | 19%
Cc1cc(N2CCOC(C(F)(F)F)C2)nc(-c2ccccc2)n1 (stereo unspecified) | 4%
COc1ccc(S(=O)(=O)NC[C@H]2O[C@@H](CO)[C@@H](O)[C@H]2N2CCc3ccccc3C2)cc1 | 4%

Carrying on:
compound | hNpr1 antagonist
Cc1ccc(NC(=O)N2CCC(CCNC(=O)C3CC3)CC2)cc1F | -14%
Cc1cccc(CCNC(=O)[C@@H]2C[C@@H](O)CN2C2CCNCC2)c1 | -5%
CCCN(CC1CCOC1)C(=O)Nc1ccc(Cl)cc1 (stereo unspecified) | 0%
CC(=O)N[C@@H]1CN(Cc2ccc(C)cn2)C[C@H]1CO | -1%
COc1ccc(-c2[nH]nc3ncc(C(=O)Nc4ccccc4)nc23)c(C)c1 | -2%[70.6 µM]
Cc1cccc(-n2nc(-c3c(C)nc4scc(CC(=O)NC(C)C)n4c3=O)cc2C)c1C | 0%
COCCN1CCCCCC(O)c2cc(C(=O)NCCc3cccnc3)ccc21 (stereo unspecified) | -2%
COCCOC1CCN(C(=O)CCc2ccc(OC)cc2)C1 (stereo unspecified) | -14%
CCn1ncc(NC(=O)Cn2ncc3cc(-c4ccc(N(C)C)cc4)ccc32)n1 | ?
COc1ccc2c(c1)OCC(C(=O)NCc1nc3c(s1)CCCC3)C2 (stereo unspecified) | 2%

Other compounds follow.
compound | hNpr1 antagonist
O=C1NC2(CCN(Cc3ccc(F)cc3)C2)COc2ccccc21 (stereo unspecified) | -16%[70.6 µM]
CCOc1ccc(C2Cn3nnc(-c4nc(-c5cccc(Br)c5)no4)c3CO2)cc1 (stereo unspecified) | -2%
c1ccc(-c2[nH]nc3ncc(-c4cn[nH]c4)nc23)cc1 | -4%[70.6 µM]
O=C(c1cccs1)N1Cc2[nH]cnc2C[C@H]1c1nc(-c2ccc3ccccc3c2)no1 | -1%[70.6 µM]
Cc1ccccc1-c1ncc(CN2CCN(c3ccncc3C)CC2)cn1 | -3%
CCC1(CC)CC1C(=O)N1CCC2(CC1)Nc1ccccc1NC2=O (stereo unspecified) | ?
CC(C)CC(=O)NCC1Cn2cccc2C(=O)N1Cc1ccccc1 (stereo unspecified) | 1%
CC(C)(C)CN1CCOC[C@H]1c1ncc(-c2ccc(Cl)s2)[nH]1 | -15%[70.6 µM]
COCCn1nnnc1C1CC2(CCOCC2)C(=O)N1CCc1ccc(OC)c(OC)c1 (stereo unspecified) | -3%
O=C1CCCCCN1C1CCN([S+](=O)([O-])c2cccc(C(F)(F)F)c2)CC1 | 3%

The closing 3 entries of the part above lead into the next:
compound | hNpr1 antagonist
CC(C)(C)CN1CCOC[C@H]1c1ncc(-c2ccc(Cl)s2)[nH]1 | -15%[70.6 µM]
COCCn1nnnc1C1CC2(CCOCC2)C(=O)N1CCc1ccc(OC)c(OC)c1 (stereo unspecified) | -3%
O=C1CCCCCN1C1CCN([S+](=O)([O-])c2cccc(C(F)(F)F)c2)CC1 | 3%
O=C(c1ccoc1)N1CCC2(CC1)CC(OCC1CC1)CCO2 (stereo unspecified) | 0%
COc1cc(=O)n2c(c1C(=O)Nc1cc(F)ccc1C)CCCC2 | 6%
COc1ccc(C)cc1NC(=O)Cn1c(-c2ccc(Cl)cc2)nc(C)c(CCO)c1=O | 1%
COc1cccc(S(=O)(=O)N2CCC3(CC2)N(C)C(=O)CS3=O)c1 (stereo unspecified) | -3%
CCNC(=O)[C@@H]1C[C@H](NC(=O)c2cc(C)on2)CN1Cc1nccs1 | 2%
CNC(=O)[C@@H]1C[C@H](n2cc(CNS(=O)(=O)c3ccc(C)cc3F)nn2)CN1 | 4%
COc1cccc(CN2C(=O)OC3(CCN(Cc4ccccn4)CC3)C2(C)c2cccnc2)c1 (stereo unspecified) | 0%
O=C1CCCN1CCCN1C(=O)[C@H]2CN(Cc3ccc(F)cc3Cl)C[C@H]2C1=O | 5%
CCn1ncc(N2CCCC(CC(=O)Nc3cc(OC)cc(OC)c3)C2)cc1=O (stereo unspecified) | 4%
OCC1(CN2CCCC2)CCN(Cc2cc(F)cc(F)c2)CC1 | 7%

Other results:
compound | hNpr1 antagonist
COc1ccc(CC(=O)N(C)C2CCc3nnc(C)n3CC2)cc1Cl (stereo unspecified) | 3%
CCOc1cc(=O)n2c(c1C(=O)Nc1ccc3c(c1)OCCO3)CCCCC2 | -19%
CN(C)[C@H]1CCN(C(=O)c2ccccc2-n2cncn2)C[C@H]1CCC(=O)O | 0%
Oc1ccccc1CN1CCNc2cnc(Nc3ccccc3)cc2C1 | ?
CCCn1cc(C2CCN(S(=O)(=O)c3c(Cl)cccc3Cl)CC2)c2ccccc21 | -6%
Cc1cc(CNC(=O)c2cc(-c3ccncc3)cc3c2OCCN3C)no1 | 1%[70.6 µM]
COC(=O)N1CCn2c(nn(-c3ccc(C)cc3)c2=O)C1 | -3%[70.6 µM]
CN(Cc1ccccc1)Cc1cn([C@H]2CO[C@H]3[C@@H]2OC[C@@H]3NC(=O)Nc2ccc(Oc3ccccc3)cc2)nn1 | -20%
COC[C@@H]1CN(C(=O)c2ccc(OC)c(F)c2)C[C@H]1C(N)=O | -1%
CC(=O)N1CCC(N2CC[C@H](c3nc4ccccc4s3)C2)CC1 | 2%[70.6 µM]

(list continues)
compound | hNpr1 antagonist
Cc1c(Cl)cccc1NC(=O)CN1C(=O)NC2(CCCCC2)C1=O | -6%
COC[C@H]1CCCN1C(=O)CC[C@H]1CNC(=O)[C@@H]2[C@@H](CCN2Cc2cccs2)N1C | 0%[70.6 µM]
CC(C)CCN1CCOc2cc(C(=O)Nc3nccs3)ccc2C1 | -18%[70.6 µM]
O=C1c2c(nc(COc3ccccc3)n2Cc2ccccc2)NCCN1Cc1ccccc1 | ?
O=c1n(-c2ccc(C(F)(F)F)cc2)nc2n1CCN(Cc1ccc(F)cc1)C2 | -24%
O=S(=O)(c1ccc(F)c(F)c1)N1CCCC(Cn2c(C3CC3)nc3cccnc32)C1 (stereo unspecified) | -6%
CC(=O)NC1CCN(c2nc3ncccc3o2)CC1 | 0%&1%[70.6 µM]
COc1cccc(CC(=O)N2CCCn3nc(C)c(-c4ccccc4-c4ccccc4)c32)c1 | ?
O=C1NC2(CCN(Cc3ccccc3C(F)(F)F)CC2)COc2ccccc21 | 0%
CCCNC(=O)N1CCC(n2c(C)cnc2C2CCOCC2)CC1 | 7%

(cont.)
compound | hNpr1 antagonist
Cc1cc(C2CCCN2C(=O)c2ccnn2C)on1 (stereo unspecified) | 2%
CCn1nc(-c2ccccc2CN2CCOCC2)nc1N(C)C | 3%
CC(=O)N1CCC(N2C[C@H](O)C[C@H]2c2nc(-c3ccc(C(F)(F)F)cc3)no2)CC1 | -10%[70.6 µM]
Cc1nn(C)c(C)c1CCN(C)C(=O)c1ccc(N2CC3CC(C2)[C@H]2CCCC(=O)N2C3)nc1 (stereo partly specified) | -1%
CCOC(=O)C1=C(C)N=C2SC=C(CC(=O)N3CCCCC3)N2C1c1cccc(OC)c1 (stereo unspecified) | -25%
Cn1cc(CN2CCCC(COc3ccccc3C(=O)N3CCCC3)C2)c2ccccc21 (stereo unspecified) | -24%
Cc1noc(-c2ccc(OC3CN(S(=O)(=O)c4c(C)nn(C)c4C)C3)cc2)n1 | -4%
O=C(NCc1ccc2c(c1)OCO2)c1nc(-c2ccc(Cl)cc2)c2cnccn12 | 7%
O=C(NC1CCCCC1)N1CCc2nn(CC3CC3)c(=O)n2CC1 | 2%
COc1ccc(OCC2(C)COc3ccc(C(=O)NC4CCOCC4)cc3N2)cc1 (stereo unspecified) | -9%[70.6 µM]

Pulled one by one from above, 3 records:
compound | hNpr1 antagonist
CC(=O)N1CCC(N2C[C@H](O)C[C@H]2c2nc(-c3ccc(C(F)(F)F)cc3)no2)CC1 | -10%[70.6 µM]
Cc1noc(-c2ccc(OC3CN(S(=O)(=O)c4c(C)nn(C)c4C)C3)cc2)n1 | -4%
Cc1cc(C2CCCN2C(=O)c2ccnn2C)on1 (stereo unspecified) | 2%

(list continues)
compound | hNpr1 antagonist
COc1ncc(-c2ccnc(-c3nnc(C)n3-c3ccccc3)c2)cn1 | 6%[70.6 µM]
Cc1cc(Cn2cc3c4c(cccc42)[C@H](CC(C)C)N[C@H](C(=O)NC2CCC2)C3)no1 | 4%[70.6 µM]
Cc1noc(C)c1S(=O)(=O)N1C[C@@H](C(=O)O)[C@H](c2ccccn2)C1 | 1%
CCN(C)C(=O)C(C)N1CCc2onc(-c3ccc(-c4ccccc4)cc3)c2C1 (stereo unspecified) | ?
Cc1ccc(NC(=O)Cn2c(N(C)Cc3ccccc3)nc(C)cc2=O)c(Cl)c1 | ?
Cc1cc(N2CCN(Cc3ccccc3)CC(O)C2)nc(N)n1 (stereo unspecified) | 1%
COc1ccc(-c2cc(N3CCC(NC(=O)c4cc(Cl)ccc4F)C3)n[nH]2)cc1 (stereo unspecified) | -11%
CCN1C(=O)CCc2cc(NC(=O)c3ccc(F)cc3)ccc21 | 2%
CC(C)N1CCN(CCN2CC3(CCN(C(=O)CCN)CC3)OC2=O)CC1 | 2%
Cc1n[nH]c(C)c1CCC(=O)NC1CCCc2c1[nH]c1c(Cl)cccc21 (stereo unspecified) | 2%

New compounds follow:
compound | hNpr1 antagonist
OCC1(Cc2ccccc2C(F)(F)F)CCNCC1 | 2%
CN(CC1CCOC1)C(=O)c1ccccc1Br (stereo unspecified) | 0%
CCCC(=O)N1CC2CC(C1)[C@H]1CCCC(=O)N1C2 (stereo partly specified) | 5%
Cc1ccc(S(=O)(=O)N2CCCC(CCC(=O)N3CCCCC3)C2)cc1 (stereo unspecified) | 13µM*
O=C(c1ccc2c(c1)OCO2)N1CCC2(CC1)N=C(c1ccc(Br)cc1)NO2 | 13µM*
O=C(CC1CCCCC1)Nc1ccc(-c2nnc3n2CCCC3)cc1 | 7%
O=C(N[C@@H]1CCN(C(=O)CSc2ccccn2)C[C@H]1O)c1ccncc1 | 1%
CCNC(=O)c1cccnc1OC1CCN(C(=O)c2cc(C)cc(C)c2)C1 (stereo unspecified) | 3%
Cc1cccc(C(=O)N2CCN(c3cc(C(F)(F)F)ncn3)CC2)c1 | 3%
O=C(c1cnccn1)N1CCC[C@H](n2c(=O)n(CC3CC3)c3cccnc32)C1 | 11%
CCn1nccc1C(=O)N1[C@@H]2CC[C@H]1CC(NC(=O)c1ccncc1)C2 (stereo partly specified) | 4%
CC(=O)NC1(C)CCN(Cc2cccc(Nc3cccc(Cl)c3)c2)C1 (stereo unspecified) | ?
Cc1nn(CC(=O)NC(C)c2ccccc2)c(=O)c2nc(C(C)C)sc12 (stereo unspecified) | 4%

A portion of the library; count on the stated rates, not on these rows.
